KCNQ2 pot – potentiators of rat KCNQ2 potassium channel | CHO-K1 KCNQ2, FluxOR thallium flux fluorescence; active compounds read high | 0.54% of 310,000 active | B-score at 10 µM;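 active = fluorescence ratio B-score at least 3 SD of library B-scores, with initial fluorescence B-score within 3 SD, cut at about 5.3 in these data; same plate scores as AID 2156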;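 also: B-score of peak minus minimum over baseline fluorescence ratio after K+ and Tl+ stimulus; positive B-score means potentiation of KCNQ2 with more thallium influx and brighter signal; only the inactives scoring about 0 or higher are listed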
Target sequence (O88943 whole entry, looked up): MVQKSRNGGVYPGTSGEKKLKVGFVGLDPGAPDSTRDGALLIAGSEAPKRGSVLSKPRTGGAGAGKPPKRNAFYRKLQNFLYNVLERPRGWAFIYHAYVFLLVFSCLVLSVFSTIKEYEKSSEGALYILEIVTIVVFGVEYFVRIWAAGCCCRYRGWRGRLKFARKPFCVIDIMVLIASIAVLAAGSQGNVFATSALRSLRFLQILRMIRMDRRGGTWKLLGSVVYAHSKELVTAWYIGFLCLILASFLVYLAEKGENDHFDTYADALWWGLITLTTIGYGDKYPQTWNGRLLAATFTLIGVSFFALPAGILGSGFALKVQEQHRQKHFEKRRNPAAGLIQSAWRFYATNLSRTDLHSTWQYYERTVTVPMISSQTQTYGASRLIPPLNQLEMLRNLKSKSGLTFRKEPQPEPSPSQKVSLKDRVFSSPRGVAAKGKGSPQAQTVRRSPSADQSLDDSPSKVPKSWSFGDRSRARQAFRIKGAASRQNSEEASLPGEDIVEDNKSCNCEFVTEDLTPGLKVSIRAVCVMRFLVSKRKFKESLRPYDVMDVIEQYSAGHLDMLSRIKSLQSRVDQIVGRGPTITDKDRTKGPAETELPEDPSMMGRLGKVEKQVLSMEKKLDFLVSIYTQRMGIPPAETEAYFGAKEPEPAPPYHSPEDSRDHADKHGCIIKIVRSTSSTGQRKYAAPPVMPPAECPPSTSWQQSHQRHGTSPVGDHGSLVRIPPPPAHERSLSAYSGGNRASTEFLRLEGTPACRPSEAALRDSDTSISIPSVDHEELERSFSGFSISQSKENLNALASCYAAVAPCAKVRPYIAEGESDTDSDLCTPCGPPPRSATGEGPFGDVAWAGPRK
KCNQ2 pot baseline – also measured in KCNQ2 pot; calls as there; B-score; compound at 10 µM; measured here: initial fluorescence intensity artifact check;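 brightness before thallium and not channel activity; 0 = typical well and far values either way flag optical interference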
* = called active by the depositor. An excerpt; the hit share may differ from the screen's.

SMILES | KCNQ2 pot | KCNQ2 pot baseline
CCN(C(=O)COC(=O)c1n[nH]c2ccccc12)C1CCS(=O)(=O)C1 (centres undefined) | 2.3 | -1.8
CCOC(=O)c1nn(-c2ccc(F)cc2)c2c1CC/C2=C/c1ccccc1 | 1.8 | 0.02
CCOc1ccc(N2CC(C(=O)Nc3nnc(Cc4ccc(OC)cc4)s3)CC2=O)cc1 (centres undefined) | 0.05 | -0.26
NC(=O)C1CCN(c2nc3c(S(=O)(=O)c4ccccc4)nnn3c3ccccc23)CC1 | 0.1 | 0.47
CC(C)(C)c1ccc(C(=O)N2CCNCC2)cc1 | 0.91 | 0.28
Cc1ccc(C)c(NC(=O)Cc2coc3cc4c(cc23)CCC4)c1 | 0.76 | 1.4
CC1=NCCN1CCNC(=O)Nc1cc(C)cc(C)c1 | 0.91 | -2.4
O=C(NCc1ccco1)c1ccccc1F | 0.79 | -1.7
COCCNC(=O)c1ccc(CSc2nc3ccccc3s2)cc1 | 0.03 | 3
Cn1cccc1CC(=O)N/N=C/c1cccc([N+](=O)[O-])c1 | 0.43 | 2.7
COc1ccc([N+](=O)[O-])cc1NCc1ccco1 | 0.26 | -2.2
CCN(CC)S(=O)(=O)c1cccc(C(=O)N[C@H](C(=O)OCC(N)=O)C(C)C)c1 | 1.8 | 0.94
C=CCC(=O)OCCCCCCOc1ccc(C(=O)O)cc1 | 2.2 | -0.01
COC(=O)c1ccc(CSc2ccc3nnc(-c4ccc(OC)cc4)n3n2)o1 | 1 | -1.5
CCN(CC)CCCNC(=O)CSc1nc2c(c(C(F)(F)F)n1)CCc1ccccc1-2 | 0.86 | -1.5
Cc1ccc(N=CC2=C(O)CC(C)(C)CC2=O)nc1 | 0.74 | 0.13
CC(C)CCN(C(=S)Nc1cccc(F)c1)C1CCN(C(C)C)CC1 | 0.47 | 0.41
CCOC(=O)CC(=O)c1cc(OC)c(OC)c(OC)c1 | 0.01 | 1.8
CC(C)(CO)Nc1nc(N2CCCC2)nc(N2CCCC2)n1 | 1 | 1.3
Cc1cc(C(F)(F)F)nn1Cc1n[nH]c(=S)n1-c1cccc(Cl)c1 | 0.61 | 0.93
COC(=O)CNc1nc(Cl)nc(Nc2ccc(Cl)cc2)n1 | 0.02 | -0.18
CNC(=O)COC(=O)/C=C/c1cccc(F)c1 | 1.1 | 0.56
COc1cccc(CNC2CCCCCCC2)c1OC | 0.06 | -0.68
O=C(CN1CCOCC1)N/N=C/c1ccc(-c2ccc(Br)cc2)o1 | 1.3 | 0.32
CCC(C)NC(=O)CN1C(=O)C(CC)Sc2ccccc21 (centres undefined) | 0.63 | 2.3
SMILES | KCNQ2 pot | KCNQ2 pot baseline
O=C(Cn1ncc2c(=O)oc3ccccc3c21)NCCN1CCN(c2ccccc2F)CC1 | 0.11 | 1.1
COC(=O)c1cccc(C23CC4(C2)[C@H](CN(Cc2cccnc2)[C@@H]4c2ccccc2)C3c2ccccc2)c1 (some centres undefined) | 0.04 | 1.8
O=C(OCC(=O)N1CCOCC1)c1ccc2c(c1)OCCO2 | 0.28 | -1.2
CCSc1ccccc1C(=O)Nc1nc2ccccc2c(=O)[nH]1 | 0.91 | -1.1
COc1ccc(C)cc1NC(=O)CSc1nnc(-c2cc(C)[nH]n2)n1N | 0.49 | -1.5
CCC(C)(C)NC(=O)C(OC(=O)c1ccco1)c1ccc(OC)cc1 (centres undefined) | 0.12 | -1.8
CC(C)C(NC(=O)c1ccc(S(=O)(=O)N2CCOCC2)cc1)c1nc2ccccc2[nH]1 (centres undefined) | 1.2 | -0.25
O=C(Nc1ccccc1)NC1CCN(CCCN2C(=O)c3ccccc3C2=O)CC1 | 0.11 | 0.37
CCOc1cccc(/C=N/NC(=S)NCCN2CCOCC2)c1O | 0.59 | 1.3
N#CC1=C(N)Oc2cc(N)ccc2C1c1ccc(F)cc1 (centres undefined) | 0.61 | -0.6
COc1ccc(C)cc1S(=O)(=O)N1CCOCC1 | 0.74 | -0.88
Cc1cc(C)n(-c2ccc(NC(=O)C3CCN(Cc4ccccn4)CC3)cc2)n1 | 0.65 | 0.59
O=C1CC(c2ccccc2)CC(O)=C1C=NCCN1CCNCC1 (centres undefined) | 0.2 | 0.31
COc1ccc(-c2ccc(SCC(=O)NCC3CCCO3)nn2)cc1OC (centres undefined) | 0.21 | 0.92
CC(=O)c1cccc(NC(=O)C2CCN(C(=O)c3cccs3)CC2)c1 | 1.1 | 0.65
CCCCSC1(SCCCC)N=C(N)C2(C#N)C(c3ccccc3)NC(C)=CC12C#N (centres undefined) | 0.27 | 0.37
COc1ccc(C2CC(c3ccc(OC)cc3)n3nc(N)nc3N2)cc1 (centres undefined) | 0.63 | -0.49
CC1(C)COC(c2coc3ccccc3c2=O)OC1 | 0.72 | 0.04
CCOC(=O)c1ccc(Nc2nnc3nc(C)cc(C)n23)cc1 | 0.23 | 0.81
CCCN1Cc2cccc(C(=O)NCc3ccc4c(c3)OCO4)c2C1=O | 0.79 | -0.03
CCC(CC)C(=O)Nc1cccc(C(=O)Nc2ccc(S(=O)(=O)Nc3ccc(C)cc3)cc2)c1 | 0.08 | 1.2
O=C(N/N=C/c1ccc(Br)o1)c1cc([N+](=O)[O-])cc([N+](=O)[O-])c1 | 0.45 | -1.2
O=C(O)c1ccc(NC(=S)Nc2ccccc2)cc1 | 0.06 | -0.62
Cc1nc(NCCO)c(C#N)c2c1COC(C)(C)C2 | 1.4 | -1.8
CCCOc1ccc(N2C(=O)CC(SCC(N)C(=O)OCC)C2=O)cc1 (centres undefined) | 0.29 | -0.55
SMILES | KCNQ2 pot | KCNQ2 pot baseline
COCCN(CCOC)C(=O)CN1C(=O)NC2(CCCc3sccc32)C1=O (centres undefined) | 0.66 | -0.58
Cc1cc(NC(=O)C2CC(c3c(F)cccc3Cl)=NO2)n(-c2ccccc2)n1 (centres undefined) | 0.2 | -0.78
O=C(c1ccc(Cl)cc1)N(Cc1cccs1)C1CCS(=O)(=O)C1 (centres undefined) | 2.5 | -1.2
CC(=O)Nc1ccc(NC(=O)C(C)OC(=O)c2cc(S(=O)(=O)N(C)C)ccc2N2CCCC2)cc1 (centres undefined) | 1.4 | 0.22
O=C(O)CCc1nn2cnc3sc4c(c3c2nc1=O)CCCC4 | 0.48 | 0.13
N#C/C(=N\Nc1ccc([N+](=O)[O-])cc1)C(N)=S | 4.2 | -2.1
NC(=S)Nc1ccc(F)c(F)c1F | 0.58 | 0.34
O=C(CCc1nnc2ccc(NCc3ccccc3Cl)nn12)NC1CCCCC1 | 0.08 | -1.8
CC1CCN(S(=O)(=O)c2ccc3c(c2)N(CC(=O)NCCCN2CCCC(C)C2)C(=O)CO3)CC1 (centres undefined) | 0.81 | 0.83
CCOC(=O)c1c(NC(=O)CSc2nnc(-c3c[nH]c4ccccc34)n2CC)sc2c1CCCC2 | 2.3 | -1.5
COc1cccc(N(CC(=O)NC2CCCC2)C(=O)CCC(=O)Nc2nccs2)c1 | 2.1 | 0.51
Cc1ccc(/C=N/NC(=O)Cn2cnc3c2c(=O)n(C)c(=O)n3C)s1 | 0.55 | -0.25
CC(C)(C)NC(=O)NC(=O)CSc1ncccn1 | 0.14 | 1.6
O=C(NNC(=O)c1cccs1)c1ccccc1 | 0.02 | -1.9
c1cc(-c2n[nH]c(-c3ccncc3)n2)ccn1 | 1.1 | -1.7
COCCNC(=O)/C(C#N)=C/c1ccc(C)o1 | 0.59 | 0.77
Cn1c(CBr)c(C(=O)c2ccc([N+](=O)[O-])cc2)c(=O)n(C)c1=O | 0.5 | 0.5
O=C(Cn1nnc(-c2ccccc2)n1)OCc1csc(-c2ccccc2)n1 | 0.01 | -0.65
CCOC(=O)c1c(C)nc2c(c1C)c(=O)oc1ccccc12 | 0.01 | 0.39
CC(Sc1ncnc2sc(-c3ccccc3)cc12)C(N)=O (centres undefined) | 0.19 | -0.93
Cc1cc(C)c(NC(=O)CSc2nnc(CNC(=O)c3c(F)cccc3Cl)o2)c(C)c1 | 4.6 | 0.83
COc1cccc(NC(=O)CCc2nnc3ccc(N4CCN(c5cccc(OC)c5)CC4)nn23)c1 | 0.31 | -2
N=C(N)c1ccc(Cl)cc1 | 0.27 | 0.04
CC1CCCC(C)N1CC(O)COCc1ccccc1F (centres undefined) | 1.1 | -1.2
O=S(=O)(c1ccc2ccccc2c1)N1CCN(Cc2ccccn2)CC1 | 1.6 | 0.12
SMILES | KCNQ2 pot | KCNQ2 pot baseline
CCN(C1CCS(=O)(=O)C1)S(=O)(=O)c1cc(C)ccc1C (centres undefined) | 0.05 | 1.1
CCCCN(CC)S(=O)(=O)c1ccc2c(c1)CCCN2C(C)=O | 0.89 | 0.26
Cc1ccc(NC2CCCN(C(=O)C3CCCC3)C2)cc1C (centres undefined) | 0.01 | 2.9
COc1ccc(CNC(=O)c2cc(=O)c3cc(C)cc(C)c3o2)cc1 | 1.5 | 0.01
COc1ccc(/C=C/C(=O)OC(C)CN2CCOCC2)cc1 (centres undefined) | 1.1 | -0.98
O=c1oc2ccccc2c2oc3cc(O)c(O)cc3c12 | 2.4 | -1.4
Cc1ccc(/C(N)=N/OC(=O)Cc2cccs2)cc1 | 0.18 | -0.4
CCCC(O)(c1ccc(OC)cc1)C(CN1CCOCC1)c1ccc(Cl)cc1 (centres undefined) | 5.2 | -1.5
O=C(COc1ccc(S(=O)(=O)NC2CCCCC2)cc1Cl)N1CCN(c2ccccc2)CC1 | 0.12 | -1.5
COc1ccc(/C=C/c2ccccc2)cc1[C@H]1[C@@H]2C=CCC[C@@]2(C)C(=O)N1Cc1ccccc1 | 0.27 | 1.5
COc1ccc(-c2csc(NC(=S)NC(=O)/C=C/c3ccco3)n2)cc1OC | 0.1 | -0.89
Cc1cc2cc(CN(Cc3ccco3)C(=O)NCc3ccccc3)c(=O)[nH]c2cc1C | 1.8 | 2
COCCNC(=O)Nc1ccc2nc(-c3cccs3)c(-c3cccs3)nc2c1 | 0.79 | -0.54
O=c1[nH]c(C2CCN(S(=O)(=O)c3ccc(C(F)(F)F)cc3)CC2)nc2c1nnn2Cc1cccc(F)c1 | 0.68 | -0.78
CC1=C([N+](=O)[O-])C(c2ccccc2Cl)NC(=O)N1C (centres undefined) | 0.36 | -1.8
O=C(NC1=NCCCCC1)c1cccc2ccccc12 | 0.51 | -1.7
CCc1n[nH]c(=S)n1/N=C/c1cc(Br)c(O)c(OC)c1 | 1.9 | 0.32
Cc1ccc(-c2nn3c(C)nnc3c3ccccc23)cc1S(=O)(=O)NCCO | 0.31 | -1.7
CCC(C)NC(=O)CCNS(=O)(=O)c1ccc(Br)cc1 (centres undefined) | 0.11 | -0.98
COc1cc(OC)cc(C(=O)N/N=C(\C)CC(=O)Nc2ccccn2)c1 | 0.71 | -2.4
CC(=O)C1=C(O)C(=O)N(c2ccc(C(=O)O)cc2)C1c1ccccc1 (centres undefined) | 0.64 | -0.99
CCC(NS(=O)(=O)c1ccc(C)cc1)C(=O)N1CCOCCOCCOCCOCC1 (centres undefined) | 0.02 | -0.82
C/C=C/c1ccccc1OCc1ccc(C(=O)O)o1 | 0.19 | -0.19
c1ccc(Cc2nnc3sc(Nc4ccccc4)nn23)cc1 | 2.1 | -0.62
Cc1ccccc1N1CCN(C2CCCN(C(=O)c3cc(C(C)C)[nH]n3)C2)CC1 (centres undefined) | 0.01 | 1.9
SMILES | KCNQ2 pot | KCNQ2 pot baseline
Cc1ccnc(NC(=O)c2sc3ccccc3c2Cl)c1 | 0.85 | -1.3
NC(=O)C1CCCN(Cc2ccc(Cl)cc2)C1 (centres undefined) | 0.04 | 0.17
Cc1ccc(S(=O)(=O)NCC(=O)NCC2CCCCC2)cc1C | 1.2 | 0.68
CCCCn1c(N)c(N(CCOC)C(=O)CSc2n[nH]c(-c3ccc(C)cc3)n2)c(=O)[nH]c1=O | 1.6 | 0.25
CC12CC3CC(C)(C1)CC(C(=O)N1CCN(C(=O)c4ccco4)CC1)(C3)C2 | 0.72 | 3
CC(C)(C)C(=O)N1CCN(c2ccc(NC(=O)c3ccco3)cc2)CC1 | 0.85 | 3.5
Cc1cccc(C)c1N/C=C/c1onc(C)c1[N+](=O)[O-] | 0.52 | -0.38

Source: PubChem
